From PubChem BioAssay
UCH37 DUB inh – inhibitors of human UCH37 deubiquitinase, primary screen, biochemical, Ub-AMC cleavage, fluorescence; Ubiquitin carboxyl-terminal hydrolase isozyme L5 (Homo sapiens), Q9Y5K5; AID 588478, 2011; 0.33% of 330,000 active; purified proteasome/UCH37; inhibition, % (no concentration beside the values);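 active means mean of two replicates above 20%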;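 further: 0% = compound-free wells with enzyme and 100% = wells lacking proteasome; stock transfer was 100 nL into about 20 µL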
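Material: human UCH37 enzyme supplied as purified proteasome complex / Amount: 0.15 nM proteasome as dispensed / Buffer or medium: pH 7.4 Tris-HCl (50 mM) with ovalbumin, ATP-MgCl2, DTT / Times: preincubation 30 min, reaction 25 min, room temperature / Technique: AMC fluorescence from Ub-AMC cleavage, excitation 355 nm, emission 460 nm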
Beta2AR agonist – beta2AR agonists driving receptor internalization, primary screen, cell-based, FAP fluorogen, flow cytometry; AID 504454, 2011; response, % (test concentration not listed); Am2.2-beta2AR cells; reference of the scale not given here; Beta-2 adrenergic receptor (Homo sapiens), P07550; 0.43% of 340,000 active;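 active means response above a set limit, near 3 SD of response in nonfluorescent compounds, cut at about 42% in these data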;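 further: stock transfer was 100 nL into about 11 µL; a reference agonist was the positive control; negative values mostly stem from fluorescent compounds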
Target sequence (P07550 whole entry, looked up): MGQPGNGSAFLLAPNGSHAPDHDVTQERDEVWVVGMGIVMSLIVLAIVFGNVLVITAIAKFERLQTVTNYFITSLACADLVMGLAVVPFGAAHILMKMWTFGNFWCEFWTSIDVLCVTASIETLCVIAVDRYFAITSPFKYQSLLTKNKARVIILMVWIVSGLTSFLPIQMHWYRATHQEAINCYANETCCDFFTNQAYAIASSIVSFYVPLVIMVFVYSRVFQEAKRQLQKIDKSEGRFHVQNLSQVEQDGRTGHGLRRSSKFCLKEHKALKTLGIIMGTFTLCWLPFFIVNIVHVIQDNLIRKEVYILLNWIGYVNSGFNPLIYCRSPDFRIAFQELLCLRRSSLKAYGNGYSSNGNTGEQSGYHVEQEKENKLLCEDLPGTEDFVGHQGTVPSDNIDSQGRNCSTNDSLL
rRNA inh HTS – reduced GFP signal of wild-type E. coli, primary screen, bacterial rRNA inhibitor project, GFP/RFP fluorescence, OD600, single point | E. coli WT GFP vs humanized-ribosome RFP mutants, 24 h; hits give low values; DMSO median 0, no signal -100 | 1.6% of 350,000 active | AID 720706, 2013 | GFP signal change (wild-type ribosome), % (test concentration not listed);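 active means significant combined selectivity score with lowered wild-type GFP, culture density cut under 30%, mutant RFP and density less affected; inactive means any of these conditions unmet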; further: one replicate is shown; some compounds called inactive have numbers as strong as hits
ALR H2O2 inh – inhibitors of human ALR sulfhydryl oxidase, primary screen, biochemical, H2O2 detection, HRP-luminol luminescence, single point. AID 485317, 2010. 3.8% of 290,000 active. inhibition, % (test concentration not listed). purified ALR, DTT oxidation;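 active means mean and each replicate at 75% or more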;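 further: stock transfer was 7.5 nL into about 7.5 µL; 0% = neutral wells and 100% = wells with inactivated enzyme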
Target sequence (P55789 whole entry, looked up): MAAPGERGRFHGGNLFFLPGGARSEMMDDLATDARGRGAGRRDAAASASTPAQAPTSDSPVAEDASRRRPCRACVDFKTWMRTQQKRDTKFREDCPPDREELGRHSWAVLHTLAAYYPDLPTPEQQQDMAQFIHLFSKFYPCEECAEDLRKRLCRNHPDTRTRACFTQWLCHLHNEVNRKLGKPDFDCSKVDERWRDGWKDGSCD
FGF22 binding – binders of human FGF22 protein, primary screen, FGF22 synaptogenesis inhibitor project, biophysical, thermal shift, single point. recombinant FGF22 thermal shift, SYPRO orange fluorescence; percent of sucrose octasulfate shift, DMSO zero. 1.5% of 340,000 active. calls only at 9.99 µM. Fibroblast growth factor 22 (Homo sapiens), Q9HCT0. AID 651658, 2012;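 active means melting point raised past a set limit in the mean and every replicate; three in four hits are not shown here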
HNF4A DNA FP – change in binding of human HNF4A to DNA, primary screen, biochemical, fluorescence polarization, FITC-DNA; Hepatocyte nuclear factor 4-alpha (Homo sapiens), P41235; 0.3% of 360,000 active; AID 1224865, 2016; 1 h; activity change, % at 10 µM; in the data active means activity change above about 30%, passing the limit was not always enough;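 further: controls were the assay level and a saturating level of protein; the project sought stronger binding though the title names inhibitors; some compounds called inactive have numbers as strong as hits; positive values seem to mean higher polarization but the record does not say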
Target sequence (P41235 whole entry, looked up): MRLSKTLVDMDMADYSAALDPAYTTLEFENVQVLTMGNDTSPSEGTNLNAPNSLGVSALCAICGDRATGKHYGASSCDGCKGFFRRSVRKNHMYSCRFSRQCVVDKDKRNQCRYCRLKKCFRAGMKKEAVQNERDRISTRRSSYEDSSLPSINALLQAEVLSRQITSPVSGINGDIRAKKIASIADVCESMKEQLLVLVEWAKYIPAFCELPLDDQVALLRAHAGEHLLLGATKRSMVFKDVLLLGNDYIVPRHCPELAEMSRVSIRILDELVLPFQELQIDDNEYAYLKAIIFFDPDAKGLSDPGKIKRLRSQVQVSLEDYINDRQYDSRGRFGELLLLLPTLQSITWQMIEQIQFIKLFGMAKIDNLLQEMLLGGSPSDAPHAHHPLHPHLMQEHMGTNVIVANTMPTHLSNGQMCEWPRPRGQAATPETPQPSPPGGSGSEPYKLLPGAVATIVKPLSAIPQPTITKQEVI
Ecoli growth – E. coli growth inhibition, primary screen, OD600; Escherichia coli growth, 23 h; hits give low values; OD600 absorbance (concentration not given with the values); 0.21% of 330,000 active; AID 1053175, 2014;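 active means OD600 absorbance below the run mean of sample wells minus 3.6 SD, in any replicate, cut at about 0.56 in these data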;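 further: stock transfer was 300 nL into about 60 µL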
rRNA inh HTS OD600 – also measured in rRNA inh HTS; calls as there; OD600 change, %; measured here: OD600 growth;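 optical density of the mix in the first replicate; 0 = DMSO median and -100 = no signal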
rRNA inh HTS RFP – further read-out of rRNA inh HTS, marked with its call; RFP signal change, %; measured here: RFP humanized mutant strains;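 first replicate; 0 = DMSO median and -100 = no signal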
* = called active by the depositor; i = inactive; / = no result given.

Results follow in this order: UCH37 DUB inh | Beta2AR agonist | rRNA inh HTS | rRNA inh HTS OD600 | rRNA inh HTS RFP | ALR H2O2 inh | FGF22 binding | HNF4A DNA FP | Ecoli growth
CN1C(=O)S/C(=C/c2cccn2-c2cccc(C(=O)O)c2)C1=O
    / | -3 | -31 | -46 | -8.3 | 3 | i | -0.4 | /
O=C1C(Cc2ccccc2)NC(=S)N1c1ccccc1 (stereo not drawn)
    0.0 | 21 | 1 | 2 | -2.0 | 21 | i | 0.3 | 0.69
COc1ccc(Cc2nnc(NC(=O)c3cccc(C)c3)s2)cc1
    2.4 | -4 | 2 | -1 | -0.2 | -7 | i | -0.1 | 0.71
COc1ccc(NC(=S)NC2CCCCC2)cn1
    0.7 | 2 | -1 | -7 | 2.5 | -9 | i | -1.3 | 0.7
C/C=C/C1=CC(=O)C[C@H](c2ccc(F)cc2)C1
    0.9 | 0 | 6 | 13 | 2.9 | 0 | i | 4.9 | /
C[C@H](NC(=O)c1ccc(C(C)(C)C)cc1)C(=O)N1CCN(C/C=C/c2ccccc2)CC1
    1.4 | -5 | -15 | -62 | 11 | / | i | -1.8 | 0.68
COc1ccc(CN2CC(=O)N(c3ccc(Cl)cc3)C2=S)cc1OC
    0.6 | 0 | -15 | -14 | 2.9 | -1 | i | 0.1 | 0.64
Cc1cnc(NC(=O)c2sc(Nc3ccccc3)nc2N)o1
    5.2 | 1 | 1 | 9 | 1.5 | / | i | 0.8 | 0.62
O=S(=O)(Nc1ccc(Cl)cn1)c1cccs1
    -2.0 | 6 | -9 | 0 | 1.2 | / | i | 2.1 | 0.64
CCc1c(C(=O)NNC(=S)NCc2ccccc2)csc1C
    1.2 | -8 | / | / | / | / | / | -0.1 | 0.71
CC(C)(C)c1ccc(NC(=O)COc2ccc(-n3ccnc3)cc2)cc1
    7.4 | -3 | / | / | / | 3 | / | 2.7 | 0.75
CCCNC(=O)CN1C(=O)NC(CCc2ccccc2)C1=O (stereo not drawn)
    4.3 | 1 | 21 | 15 | 1.6 | -9 | i | -1.7 | 0.7
CN(C)CCNC(=O)C(C(=O)c1ccc(F)cc1)n1ccccc1=O (stereo not drawn)
    4.8 | -3 | / | / | / | -18 | / | 2.5 | 0.69
CCC1Sc2ccc(S(=O)(=O)CCC(=O)NCc3ccc(C)o3)cc2NC1=O (stereo not drawn)
    0.6 | 3 | -2 | 8 | 0.8 | 30 | i | -3.0 | 0.68
O=C(c1ccc([N+](=O)[O-])cc1)N1CCN(Cc2ccccc2[N+](=O)[O-])CC1
    0.6 | 4 | / | / | / | -2 | / | 0.0 | 0.69
CC1(C)C/C(=C(/C#N)C(N)=O)CCO1
    0.0 | 8 | 16 | 8 | 0.0 | 0 | / | -0.5 | 0.74
CSc1ccc(S(=O)(=O)NCC(=O)OCC(=O)NCc2cccs2)cc1[N+](=O)[O-]
    5.9 | -2 | 4 | 5 | -0.5 | -3 | i | 2.0 | 0.67
C/C=C/c1ccc(OCc2cc(=O)n3cc(C)ccc3n2)c(OC)c1
    -14 | -2 | -7 | 16 | 8.3 | -7 | i | -0.1 | 0.66
COc1cccc(C(=O)OCC(=O)c2[nH]c(C)c(C(C)=O)c2C)c1
    1.4 | 6 | 6 | 9 | -2.3 | -3 | i | -2.5 | 0.7
COc1ccc(OCCCON2C(=O)c3ccccc3C2=O)cc1
    0.4 | 10 | / | / | / | -2 | / | 1.5 | 0.72

Part of the list above in order of heavy-atom count, smallest number first:
Results follow in this order: UCH37 DUB inh | Beta2AR agonist | rRNA inh HTS | rRNA inh HTS OD600 | rRNA inh HTS RFP | ALR H2O2 inh | FGF22 binding | HNF4A DNA FP | Ecoli growth
CCc1c(C(=O)NNC(=S)NCc2ccccc2)csc1C
    1.2 | -8 | / | / | / | / | / | -0.1 | 0.71
CN1C(=O)S/C(=C/c2cccn2-c2cccc(C(=O)O)c2)C1=O
    / | -3 | -31 | -46 | -8.3 | 3 | i | -0.4 | /
COc1ccc(OCCCON2C(=O)c3ccccc3C2=O)cc1
    0.4 | 10 | / | / | / | -2 | / | 1.5 | 0.72

(further entries)
Results follow in this order: UCH37 DUB inh | Beta2AR agonist | rRNA inh HTS | rRNA inh HTS OD600 | rRNA inh HTS RFP | ALR H2O2 inh | FGF22 binding | HNF4A DNA FP | Ecoli growth
COc1ccc(N(CC(=O)Nc2cccc3ccccc23)S(C)(=O)=O)c(OC)c1
    4.5 | -6 | 10 | 5 | 0.2 | -13 | i | 0.3 | 0.66
CCSc1nnc(NC(=O)C(C)C)s1
    5.9 | 3 | 0 | 0 | 0.1 | -6 | i | 4.0 | 0.75
N#Cc1c(NC(=O)c2cc(C3CC3)on2)sc2c1CCC2
    2.6 | -6 | -2 | -17 | 0.3 | / | i | 0.8 | 0.75
CC(C)CN(CC(C)C)CC(O)COc1ccc([N+](=O)[O-])cc1 (stereo not drawn)
    1.8 | 5 | -2 | 9 | -5.2 | -1 | i | 0.5 | 0.65
CCN1CCN(c2ccc(S(=O)(=O)N3CCCCC3)cc2NC(=O)Cc2ccccc2F)CC1
    0.4 | 9 | 13 | 8 | 2.3 | -1 | i | 2.3 | 0.66
COc1cccc(CNC(=O)c2nnn(-c3ccc(OC(F)(F)F)cc3)c2N)c1
    6.5 | 2 | 2 | 8 | 0.6 | 1 | / | -0.1 | 0.72
Cc1ccc(CNC(=O)Cn2cnc(S(=O)(=O)N3CCC(C)CC3)c2)o1
    -2.7 | -26 | 1 | 7 | -3.2 | -3 | i | 7.8 | 0.66
C=C1C(C(=O)Nc2ccc(OCC)cc2)C1C(=O)Nc1ccc(OCC)cc1 (stereo not drawn)
    0.1 | 4 | 16 | 15 | 1.3 | -2 | i | -4.9 | 0.73
O=S(=O)(c1ccccc1)N1CCN(C2CCN(Cc3ccccc3)CC2)CC1
    1.0 | 1 | / | / | / | / | / | 0.7 | 0.77
C=CCn1c(COc2ccccc2F)nnc1SCCN1C(=O)c2ccccc2C1=O
    0.0 | -8 | / | / | / | / | / | 3.6 | 0.67
CCc1cccc(NC(=O)CCNC(=O)Cn2ccc3ccccc3c2=O)c1
    -4.9 | -2 | 4 | 5 | -1.6 | 3 | i | -1.7 | 0.65
CC(C)CC(NC(=O)C1CCC(C)CC1)C(=O)Nc1ccccc1F (stereo not drawn)
    -0.6 | -2 | 4 | -7 | -3.5 | 1 | i | -2.2 | 0.71
CCN(CC)CCOCCOc1cc(C)c(Cl)c(C)c1
    2.5 | 4 | / | / | / | -2 | / | 0.9 | 0.65
COc1cccc(C(=O)Cn2c(N3CCOCC3)nc3c2c(=O)n(C)c(=O)n3C)c1
    1.3 | -3 | / | / | / | 3 | / | 0.7 | 0.73
Cc1ccc(C(=O)N(Cc2cccnc2)Cc2cc3cc(C)ccc3n3nnnc23)cc1
    0.4 | -17 | 14 | 14 | 2.2 | / | i | -1.1 | 0.71
COc1ccc(CNC(=O)CN(c2cc(C)cc(C)c2)S(=O)(=O)c2c(C)[nH]c(=O)[nH]c2=O)cc1
    0.9 | -9 | 5 | 7 | -0.4 | 0 | i | -1.9 | 0.59
COc1cccc2c1OC1(N3CCOCC3)CCCCC1C2C[N+](=O)[O-] (stereo not drawn)
    / | / | 3 | 1 | 1.0 | / | / | 3.2 | /
Cc1ccc(-n2nc(C)c3c2OC(N)=C(C#N)C3c2ccncc2)cc1 (stereo not drawn)
    2.4 | 3 | / | / | / | 37 | / | -0.2 | 0.75
COc1cc([N+](=O)[O-])ccc1NC(=O)COC(=O)c1c[nH]c(=O)[nH]c1=O
    7.8 | 3 | 10 | 12 | -0.2 | -14 | i | -2.1 | 0.72
O=C(CN(C(=O)CNS(=O)(=O)c1ccc(F)cc1)c1ccccc1)NCc1ccco1
    1.8 | 0 | 1 | 6 | 3.2 | 1 | i | 1.2 | 0.68
Cc1ccc(C(=O)c2ccccc2C(=O)OCC(=O)N2CC(C)CC(C)C2)cc1 (stereo not drawn)
    -2.0 | 1 | / | / | / | 0 | i | 5.0 | 0.69
Cc1c(C(=O)NCCSc2ccc(Cl)cc2)cccc1[N+](=O)[O-]
    6.0 | -2 | / | / | / | -1 | / | 4.0 | 0.68
CC(C)Cc1nnc(NC(=O)CS(=O)(=O)Cc2ccccc2)s1
    1.3 | -2 | 4 | 3 | -0.4 | -20 | i | -1.3 | 0.7
CN(C)C(=O)N1CCN(c2nc(-c3ccccc3)cs2)CC1
    3.0 | 4 | -6 | -9 | -1.5 | 1 | i | -2.7 | 0.62
Cc1cccc(NC(=O)Cn2cnc3c(oc4nc5c(cc43)COC(C)(C)C5)c2=O)c1
    1.4 | -4 | 11 | 11 | 2.1 | / | i | 4.1 | 0.75
COCC(=O)Nc1ccc(C(C)C)cc1
    1.1 | -1 | 11 | 15 | 4.4 | 0 | i | 3.1 | 0.63
O=C(NC1CCCCCCC1)c1cccnc1
    1.0 | 0 | -3 | -4 | -0.6 | -7 | i | 1.8 | 0.63
O=S1(=O)CC(N2CCN(CC3CC3)CC2)CN1CCc1ccccc1 (stereo not drawn)
    / | / | 7 | 16 | -3.4 | / | i | -1.8 | /
CCOc1ccc(S(=O)(=O)N(CC)CC(=O)NCc2ccccn2)cc1C
    5.0 | -4 | 2 | 2 | 0.1 | -4 | i | 0.6 | 0.7
CC(C)(C)OC(=O)NCc1n[nH]c(=S)n1C1CC1
    1.7 | -5 | 2 | 8 | -2.1 | 86* | i | -0.4 | 0.71
CCOCCCNC(=O)c1cc2c(s1)-c1ccccc1SC2
    -3.3 | 21 | 10 | -2 | 10 | -4 | i | 0.6 | 0.66
COc1cc2c(cc1OC)CN(Cc1cc(=O)n3cc(C)ccc3n1)CC2
    -58 | -10 | / | / | / | -8 | / | 4.2 | 0.67
COc1cccc(/C=N/Nc2ccc(Cl)nn2)c1OC
    / | 3 | 18 | 14 | 3.2 | -7 | i | 4.0 | /
COc1ccc(NC(=S)N(CCCN2CCC(C)CC2)Cc2cccs2)cc1
    6.7 | 14 | 5 | 5 | 4.3 | / | i | 6.1 | 0.67
COc1ccccc1CNC(=O)C(NC(=O)Nc1ccccc1)C(C)C (stereo not drawn)
    1.7 | 1 | 9 | 3 | 1.3 | -1 | i | 0.2 | 0.64
Cc1nc2ccc(NC(=O)c3ccccc3)cc2c(=O)n1Cc1ccc(F)cc1
    / | / | -14 | -33 | -0.6 | / | i | 2.4 | /
Cc1nnc2c3ccccc3c(-c3ccccc3)nn12
    -5.5 | -13 | / | / | / | 3 | / | -0.7 | 0.62
Cc1ccccc1/C=N/Nc1ccc(Cl)nn1
    / | 2 | 17 | 11 | 1.9 | -3 | i | -1.5 | /
COc1cc2c(cc1NC(=O)CSc1ccccn1)oc1ccccc12
    2.6 | 3 | / | / | / | 1 | / | 2.3 | 0.68
O=C(NCC1CCCO1)C1CCN(S(=O)(=O)c2cc(Cl)ccc2Cl)CC1 (stereo not drawn)
    4.4 | -2 | 3 | 7 | 0.2 | 37 | i | 1.7 | 0.73
Cc1cc(S(=O)(=O)NC(C)c2nnc3ccccn23)ccc1Br (stereo not drawn)
    1.5 | 9 | / | / | / | -6 | i | 1.6 | 0.7

Not all compounds are listed; rates above refer to the full screens.
